Screening results (PubChem BioAssay)
UUG fidelity = modulators of yeast start codon fidelity, primary screen, whole organism, S. cerevisiae, single point, plate reader; S. cerevisiae UUG-firefly luciferase reporter, luminescence/redox ratio; activity score, % at 18.7 µM; 350,000 compounds, 0.13% hits;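 active means replicate mean at a twofold rise or more, about +100% in these data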;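 further: firefly luciferase made from a UUG start codon reports start codon fidelity; reporter light over untreated wells divided by growth signal over untreated wells; some hits fall short of that in this replicate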
Env fusion inh = inhibitors of HIV-1 Env-driven cell-cell fusion, primary screen, HeLa-JRFL effector, CEM21 target cells, luciferase. inhibition, % at 12.3 µM. 360,000 compounds, 1.1% hits. AID 651610, 2012;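 active means mean replicate inhibition score of at least 50 and every replicate individually at or above 50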;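 further: 0% = plate neutral controls and 100% = maraviroc near 300 nM; one replicate is shown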
Starred values were filed as active, the others as inactive; [ ] = remark or other dose. The list is partial. The share of hits here may be higher or lower than overall.

SMILES | UUG fidelity | Env fusion inh
C[C@H]1CN([C@@H](C)CO)C(=O)Cc2cc(N(C)C)ccc2O[C@@H]1CN(C)Cc1ccncc1 | -5 | -3[16.7 µM]
C[C@H]1CN([C@@H](C)CO)S(=O)(=O)c2ccc(C#Cc3cccc(F)c3)cc2O[C@H]1CN(C)S(=O)(=O)c1ccccc1F | -13 | 2[16.7 µM]
C[C@H]1CN([C@@H](C)CO)C(=O)c2cc(NS(=O)(=O)c3cccs3)ccc2O[C@H]1CN(C)Cc1ccccc1 | -4 | 0[16.7 µM]
O=C(CCN1CCCCC1)N[C@@H]1CC[C@H](CCNS(=O)(=O)c2ccccc2)O[C@H]1CO | 10 | 18[16.7 µM]
C[C@@H]1CN([C@@H](C)CO)C(=O)c2cc(NC(=O)Nc3ccc(F)cc3)ccc2O[C@@H](C)CCCCO[C@H]1CN(C)Cc1ccc2c(c1)OCO2 | 22 | 18[16.7 µM]
CN1CCN(C(=O)C[C@@H]2CC[C@H](NC(=O)Cc3ccccn3)[C@@H](CO)O2)CC1 | -6 | -10[16.7 µM]
Cc1noc(C)c1S(=O)(=O)Nc1ccc2c(c1)CC(=O)N([C@@H](C)CO)C[C@H](C)[C@H](CN(C)Cc1ccc(Cl)c(Cl)c1)O2 | 20 | 30[16.7 µM]
C[C@@H]1CCCCO[C@H](CN(C)Cc2ccccc2)[C@@H](C)CN([C@@H](C)CO)C(=O)c2cc(NS(C)(=O)=O)ccc2O1 | 3 | -5[16.7 µM]
O=C(C[C@@H]1C[C@@H]2c3cc(NC(=O)c4cccnc4)ccc3O[C@@H]2[C@H](CO)O1)NCc1cccnc1 | -20 | 12[16.7 µM]
C[C@@H]1CN([C@@H](C)CO)C(=O)c2cc(C#CC3CCCC3)cnc2O[C@@H]1CN(C)S(C)(=O)=O | -1 | 16[16.7 µM]
COc1ccccc1S(=O)(=O)N[C@@H]1CC[C@H](CCn2cc(C3CC3)nn2)O[C@@H]1CO | 7 | -13[16.7 µM]
C[C@@H]1CCCCO[C@H](CN(C)C(=O)CCCN(C)C)[C@H](C)CN([C@@H](C)CO)C(=O)c2cc(N(C)C)ccc2O1 | 20 | 0[16.7 µM]
CNC[C@@H]1OCCCC[C@@H](C)Oc2ccc(NS(=O)(=O)c3c(C)noc3C)cc2C(=O)N([C@H](C)CO)C[C@@H]1C | 7 | -14[16.7 µM]
CCC(=O)Nc1ccc2c(c1)OC[C@H](C)N(C(=O)c1cnccn1)C[C@@H](C)[C@@H](OC)CN(C)C2=O | 11 | 2[16.7 µM]
Cc1ccccc1S(=O)(=O)NCC[C@H]1CC[C@H](NC(=O)Nc2cccc(F)c2)[C@@H](CO)O1 | 7 | -19[16.7 µM]

A second format for part of the listing above.
C[C@H]1CN([C@@H](C)CO)S(=O)(=O)c2ccc(C#Cc3cccc(F)c3)cc2O[C@H]1CN(C)S(=O)(=O)c1ccccc1F
  UUG fidelity: -13; Env fusion inh: 2[16.7 µM]

C[C@H]1CN([C@@H](C)CO)C(=O)c2cc(NS(=O)(=O)c3cccs3)ccc2O[C@H]1CN(C)Cc1ccccc1
  UUG fidelity: -4; Env fusion inh: 0[16.7 µM]

Going on with the list:
SMILES | UUG fidelity | Env fusion inh
COCC(=O)Nc1ccc2c(c1)C(=O)N(C)[C@H]1CC[C@H](CC(=O)NC3CCCC3)O[C@@H]1CO2 | -9 | 6[16.7 µM]
C[C@H](CO)N1C[C@H](C)[C@@H](CN(C)Cc2ccc(Oc3ccccc3)cc2)Oc2c(NC(=O)Nc3ccccc3)cccc2C1=O | -2 | -12[16.7 µM]
C[C@H]1CN([C@@H](C)CO)C(=O)c2cccc(NS(=O)(=O)c3ccc(Cl)cc3)c2O[C@H]1CN(C)C(=O)Nc1ccc2c(c1)OCO2 | 12 | -25[16.7 µM]
CCCC#Cc1ccc2c(c1)O[C@@H](CN(C)Cc1ccccn1)[C@H](C)CN([C@@H](C)CO)S2(=O)=O | 19 | -22[16.7 µM]
Cc1ccc(-c2cnc3c(c2)C(=O)N([C@H](C)CO)C[C@H](C)[C@@H](CN(C)C(=O)CN(C)C)O3)cc1 | 13 | -2[16.7 µM]
C[C@@H]1CN([C@H](C)CO)C(=O)Cc2cc(NS(=O)(=O)c3ccccc3)ccc2O[C@@H]1CN(C)Cc1ccc(-c2ccccc2)cc1 | 2 | 8[16.7 µM]
COc1ccc(S(=O)(=O)Nc2ccc3c(c2)C(=O)N([C@H](C)CO)C[C@@H](C)[C@@H](CN(C)Cc2ccncc2)OCCCC[C@H](C)O3)cc1 | 23 | 4[16.7 µM]
COc1ccc(NC(=O)N(C)C[C@@H]2Oc3ccc(NS(=O)(=O)c4cccs4)cc3CC(=O)N([C@H](C)CO)C[C@@H]2C)cc1 | 6 | 3[16.7 µM]
O=C(C[C@@H]1C=C[C@@H](NS(=O)(=O)c2ccc(F)cc2)[C@H](CO)O1)NCc1ccncn1 | 7 | -7[16.7 µM]
C[C@H]1CN([C@@H](C)CO)C(=O)c2cc(NC(=O)Nc3ccc(F)cc3)ccc2O[C@@H]1CN(C)Cc1ccc(Oc2ccccc2)cc1 | 3 | 10[16.7 µM]
O=C(C[C@@H]1C=C[C@@H](NC(=O)c2ccc(F)cc2)[C@H](CO)O1)NCCc1ccncc1 | -20 | -16[16.7 µM]
O=C(N[C@H]1CC[C@@H](CCn2cc(C3(O)CCCC3)nn2)O[C@H]1CO)C1CCCCC1 | -4 | 3[16.7 µM]
C[C@H]1CN([C@@H](C)CO)C(=O)Cc2cc(NC(=O)C3CC3)ccc2O[C@@H]1CN(C)Cc1ccc(C(F)(F)F)cc1 | -3 | -25[16.7 µM]
C[C@@H]1CCCCO[C@@H](CN(C)Cc2ccc(C(F)(F)F)cc2)[C@H](C)CN([C@H](C)CO)C(=O)c2cc(NS(=O)(=O)c3ccc(F)cc3)ccc2O1 | 16 | 33[16.7 µM]
C[C@@H]1CN([C@@H](C)CO)C(=O)c2cc(NS(=O)(=O)c3ccc(F)cc3)ccc2O[C@H]1CN(C)C(=O)NC1CCCCC1 | -1 | 0[16.7 µM]
C[C@H]1CN([C@@H](C)CO)C(=O)c2cc(NC(=O)C3CCCCC3)ccc2O[C@H]1CN(C)Cc1ccc(C(F)(F)F)cc1 | 17 | 0[16.7 µM]
C[C@@H]1CCCCO[C@@H](CN(C)C(=O)CCC(F)(F)F)[C@@H](C)CN([C@H](C)CO)C(=O)c2cc(NC(=O)CCCCCC(=O)Nc3ccccc3N)ccc2O1 | -5 | 2[16.7 µM]
C[C@@H]1CN([C@@H](C)CO)C(=O)c2cc(C3=CCCCC3)cnc2O[C@H]1CN(C)C(=O)c1ccc2c(c1)OCO2 | 11 | -11[16.7 µM]
CO[C@@H]1CN(C)C(=O)c2cc(NC(=O)C3CCOCC3)ccc2OC[C@@H](C)N(C)C[C@@H]1C | -12 | -5[16.7 µM]
COc1ccc(NC(=O)N[C@H]2C=C[C@H](CC(=O)NC3CCCCC3)O[C@@H]2CO)cc1 | 1 | 18[16.7 µM]
C[C@@H]1CCCCO[C@@H](CN(C)C(=O)CCC(F)(F)F)[C@H](C)CN([C@@H](C)CO)C(=O)c2cc(NC(=O)c3ccncc3)ccc2O1 | 16 | -11[16.7 µM]
C[C@@H]1CN([C@H](C)CO)C(=O)c2cc(NC(=O)NC3CCCCC3)ccc2O[C@H]1CN(C)C | -4 | 7[16.7 µM]
CCCN(C)C[C@H]1Oc2ncc(-c3ccccc3F)cc2C(=O)N([C@@H](C)CO)C[C@@H]1C | 14 | 13[16.7 µM]
C[C@@H]1CN([C@@H](C)CO)C(=O)c2cccc(NC(=O)Nc3ccc4c(c3)OCO4)c2O[C@H]1CN(C)C(=O)Nc1ccccc1 | 18 | 24[16.7 µM]
COc1ccc(S(=O)(=O)Nc2ccc3c(c2)C(=O)N([C@@H](C)CO)C[C@@H](C)[C@@H](CN(C)Cc2ccc(C(F)(F)F)cc2)OCCCC[C@H](C)O3)cc1 | 9 | 14[16.7 µM]
C[C@@H]1CN([C@H](C)CO)C(=O)c2cc(NC(=O)Nc3cccc4ccccc34)ccc2O[C@@H]1CN(C)C(=O)Nc1ccc2c(c1)OCO2 | 6 | 21[16.7 µM]
O=C(C[C@@H]1CC[C@@H]2[C@H](COC[C@H](O)CN2C(=O)c2ccccc2)O1)Nc1nccs1 | 7 | -19[16.7 µM]
Cc1ccc(S(=O)(=O)Nc2cccc3c2O[C@@H](CN(C)C(=O)NC2CCCCC2)[C@H](C)CN([C@H](C)CO)C3=O)cc1 | 17 | 32[16.7 µM]
C[C@H]1CCCCO[C@@H](CN(C)C(=O)Nc2ccc3c(c2)OCO3)[C@@H](C)CN([C@@H](C)CO)C(=O)c2cc(NS(=O)(=O)c3cn(C)cn3)ccc2O1 | -6 | 11[16.7 µM]
Cc1ccc(S(=O)(=O)N(C)C[C@H]2Oc3ccc(NC(=O)C4CCCCC4)cc3CC(=O)N([C@@H](C)CO)C[C@@H]2C)cc1 | -10 | 15[16.7 µM]
C[C@H](CO)N1C[C@H](C)[C@@H](CN(C)C(=O)Cc2ccncc2)Oc2ncc(C3=CCCC3)cc2C1=O | 1 | 1[16.7 µM]
C[C@H](CO)N1C[C@H](C)[C@H](CN(C)C(=O)Nc2cccc3ccccc23)Oc2ccc(NC(=O)Nc3ccccc3)cc2CC1=O | 11 | 16[16.7 µM]
COCC#Cc1ccc2c(c1)O[C@H](CN(C)C(=O)NC(C)C)[C@@H](C)CN([C@@H](C)CO)S2(=O)=O | 5 | -11[16.7 µM]
CO[C@@H]1CN(C)C(=O)c2ccc(NC(=O)C3CC3)cc2OC[C@H](C)N(CCc2ccccc2)C[C@@H]1C | -4 | 4[16.7 µM]
C[C@H]1CN([C@@H](C)CO)S(=O)(=O)c2ccc(-c3cccnc3)cc2O[C@H]1CN(C)C(=O)CN(C)C | 2 | 1[16.7 µM]
C[C@@H]1CCCCO[C@@H](CN(C)Cc2ccc3c(c2)OCO3)[C@@H](C)CN([C@@H](C)CO)C(=O)c2cc(NC(=O)Cc3ccccc3)ccc2O1 | 29 | -21[16.7 µM]
C[C@@H]1CN([C@H](C)CO)C(=O)c2cc(NC(=O)Nc3ccc4c(c3)OCO4)ccc2O[C@@H](C)CCCCO[C@@H]1CN(C)C(=O)NC1CCCCC1 | -8 | -13[16.7 µM]
Cc1noc(C)c1NC(=O)N(C)C[C@H]1OCCCC[C@H](C)Oc2ccc(NS(=O)(=O)c3ccc(Cl)cc3)cc2C(=O)N([C@H](C)CO)C[C@@H]1C | 10 | -89[16.7 µM]
C[C@H](CO)N1C[C@H](C)[C@@H](CN(C)C(=O)c2ccc3c(c2)OCO3)Oc2ncc(C3=CCCCC3)cc2C1=O | 7 | 0[16.7 µM]
C[C@@H]1CN([C@H](C)CO)C(=O)Cc2cc(NC(=O)Cc3ccccc3)ccc2O[C@H]1CN(C)C(=O)Nc1ccccc1 | 2 | 10[16.7 µM]
C[C@@H]1CN([C@@H](C)CO)S(=O)(=O)c2ccc(-c3ccc(C(=O)N(C)C)cc3)cc2O[C@@H]1CN(C)C(=O)C1CCCCC1 | 7 | 19[16.7 µM]
Cc1ccc(S(=O)(=O)N(C)C[C@H]2Oc3ccc(NC(=O)CCC(F)(F)F)cc3C(=O)N([C@@H](C)CO)C[C@@H]2C)cc1 | 5 | -9[16.7 µM]
COCC#Cc1ccc2c(c1)O[C@@H](CN(C)C(C)=O)[C@H](C)CN([C@H](C)CO)S2(=O)=O | 9 | 11[16.7 µM]
COc1ccc(NC(=O)Nc2ccc3c(c2)C(=O)N([C@@H](C)CO)C[C@H](C)[C@H](CN(C)Cc2ccccc2)OCCCC[C@H](C)O3)cc1 | 22 | 86*[16.7 µM]
COc1ccc(S(=O)(=O)Nc2ccc3c(c2)C(=O)N([C@@H](C)CO)C[C@H](C)[C@H](CN(C)C)O3)cc1 | 18 | -6[16.7 µM]

Some of the entries so far, with values under each structure.
Each structure is followed by: UUG fidelity | Env fusion inh
C[C@@H]1CCCCO[C@@H](CN(C)Cc2ccc3c(c2)OCO3)[C@@H](C)CN([C@@H](C)CO)C(=O)c2cc(NC(=O)Cc3ccccc3)ccc2O1
    29 | -21[16.7 µM]
C[C@@H]1CN([C@H](C)CO)C(=O)c2cc(NC(=O)Nc3ccc4c(c3)OCO4)ccc2O[C@@H](C)CCCCO[C@@H]1CN(C)C(=O)NC1CCCCC1
    -8 | -13[16.7 µM]

Continued.
SMILES | UUG fidelity | Env fusion inh
O=C(C[C@@H]1C[C@H]2c3cc(NC(=O)Nc4ccccc4)ccc3O[C@H]2[C@H](CO)O1)NCc1cccnc1 | -21 | 63*[16.7 µM]
COc1ccc(S(=O)(=O)Nc2ccc3c(c2)C(=O)N([C@H](C)CO)C[C@H](C)[C@H](CN(C)S(=O)(=O)c2cccs2)O3)cc1 | 5 | 37[16.7 µM]
COc1ccc(S(=O)(=O)Nc2ccc3c(c2)CC(=O)N([C@H](C)CO)C[C@H](C)[C@@H](CN(C)Cc2ccc(Oc4ccccc4)cc2)O3)cc1 | 20 | 9[16.7 µM]
Cc1ccc(S(=O)(=O)N(C)C[C@H]2Oc3ccc(NS(=O)(=O)c4c(C)noc4C)cc3CC(=O)N([C@@H](C)CO)C[C@H]2C)cc1 | 12 | -12[16.7 µM]
C[C@H](CO)N1C[C@H](C)[C@H](CN(C)Cc2ccc(Cl)c(Cl)c2)Oc2ccc(NS(=O)(=O)c3ccc(Cl)cc3)cc2C1=O | 11 | -17[16.7 µM]

Env fusion inh: entries above that show a hit.
SMILES | UUG fidelity | Env fusion inh
COc1ccc(NC(=O)Nc2ccc3c(c2)C(=O)N([C@@H](C)CO)C[C@H](C)[C@H](CN(C)Cc2ccccc2)OCCCC[C@H](C)O3)cc1 | 22 | 86*[16.7 µM]
O=C(C[C@@H]1C[C@H]2c3cc(NC(=O)Nc4ccccc4)ccc3O[C@H]2[C@H](CO)O1)NCc1cccnc1 | -21 | 63*[16.7 µM]
